Source: PubChem (several laboratories)
E coli growth: blocks Escherichia coli growth; OD600 absorbance (no concentration beside the values); AID 1053175; 330,000 tested, 0.21% active; OD600, 23 h; stronger effect = lower value;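 active = OD600 absorbance below the run mean of sample wells minus 3.6 SD, in any replicate, cut at about 0.56 in these data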;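 note: stock transfer was 300 nL into about 60 µL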
A1 inh: inhibitors of the anti-apoptotic protein A1, read as caspase activation; caspase activation, % (no concentration beside the values); MEF A1-2A-BIM cells, Caspase-Glo 3/7 luminescence, 3 h; percent of clofoctol response, vehicle zero; 330,000 tested, 0.066% active;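 active = over half of replicate activation scores above 10%, or exactly half above 10 with the replicate mean above 10; inconclusive = replicate mean below 10 yet half the replicates above 10; inactive = over half of replicates below 10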;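 note: wells of about 30 µL received 50 nL stock; many hits fall short of the cut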
Vif A3G: HIV-1 Vif–A3G interaction blockers – biochemical, TR-FRET, GST-Vif 1-94, biotin-A3G peptide, dose response retest, primary screen (AID 1117319). TR-FRET GST-Vif / biotin-A3G peptide binding; higher % means a stronger effect; test concentration not given here; strong numbers were not always called active. 260,000 tested, 0.57% active. inhibition, %, or IC50 in µM where a hit was titrated;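 active = above the screen mean plus three standard deviations and confirmed in dose response; inconclusive = results disagree or hit not tested in dose response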;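 note: Vif residues 1-94 fused to GST binding biotinylated APOBEC3G peptide 110-148; 0% = full assay without inhibitor and 100% = GST in place of GST-Vif; retest series ran down from 100 µM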
Beta2AR agonist: activates human beta-2 adrenergic receptor causing internalization. Am2.2-beta2AR cells, FAP receptor internalization, flow cytometry; reference of the scale not given here. response, % (no concentration beside the values). AID 504454. 340,000 tested, 0.43% active;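 active = response above a set limit, near 3 SD of response in nonfluorescent compounds, cut at about 42% in these data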;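 note: stock transfer was 100 nL into about 11 µL; a reference agonist was the positive control; negative values mostly stem from fluorescent compounds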
UCH37 DUB inh: blocks the human deubiquitinase UCH37; Q9Y5K5; inhibition, % (concentration not given with the values); 330,000 tested, 0.33% active; purified proteasome/UCH37, Ub-AMC cleavage fluorescence;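 active = mean of two replicates above 20%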;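 note: 0% = compound-free wells with enzyme and 100% = wells lacking proteasome; stock transfer was 100 nL into about 20 µL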
Target sequence (Q9Y5K5 whole entry, looked up): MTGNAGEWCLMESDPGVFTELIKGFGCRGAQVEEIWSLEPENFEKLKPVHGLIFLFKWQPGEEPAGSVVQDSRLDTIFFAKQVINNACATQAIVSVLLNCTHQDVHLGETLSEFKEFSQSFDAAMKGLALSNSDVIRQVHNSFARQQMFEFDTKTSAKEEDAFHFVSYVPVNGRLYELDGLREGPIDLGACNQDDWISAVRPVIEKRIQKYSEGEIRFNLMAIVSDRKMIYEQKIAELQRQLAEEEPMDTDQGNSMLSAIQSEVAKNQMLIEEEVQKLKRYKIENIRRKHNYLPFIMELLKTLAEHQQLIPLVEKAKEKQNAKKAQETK
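Signal – fluorescence, ex 355 nm, em 460 nm · System – Proteasome-bound UCH37 · Input – 0.15 nM proteasome as dispensed · Timing – 30 min preincubation with enzyme, 25 min cleavage at room temperature · Read-out basis – percent inhibition of cleavage signal versus uninhibited and no-proteasome wells · Medium – Tris-HCl pH 7.4 with ATP-MgCl2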
LANA-H2B inh: blocks KSHV LANA binding to histone H2A/H2B; inhibition, % (no concentration beside the values); 320,000 tested, 0.6% active; cell-free LANA-H2A/H2B peptide, fluorescence polarization; in the data active = inhibition mostly above about 10%, no sharp cut-off; inactive = mostly below about 6.7%;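 note: stock transfer was 7.5 nL into about 10 µL; 0% = median of vehicle wells and 100% = median of positive control wells; one replicate is shown; the record names a cut of 25% in any replicate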
HNF4A DNA FP: change in binding of human HNF4 alpha to DNA | P41235 | AID 1224865 | 360,000 tested, 0.3% active | HNF4a-FITC DNA binding, fluorescence polarization, 1 h | activity change, % at 10 µM; in the data active = activity change above about 30%, passing the limit was not always enough;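 note: controls were the assay level and a saturating level of protein; the project sought stronger binding though the title names inhibitors; some compounds called inactive have numbers as strong as hits; positive values seem to mean higher polarization but the record does not say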
Target sequence (P41235 whole entry, looked up): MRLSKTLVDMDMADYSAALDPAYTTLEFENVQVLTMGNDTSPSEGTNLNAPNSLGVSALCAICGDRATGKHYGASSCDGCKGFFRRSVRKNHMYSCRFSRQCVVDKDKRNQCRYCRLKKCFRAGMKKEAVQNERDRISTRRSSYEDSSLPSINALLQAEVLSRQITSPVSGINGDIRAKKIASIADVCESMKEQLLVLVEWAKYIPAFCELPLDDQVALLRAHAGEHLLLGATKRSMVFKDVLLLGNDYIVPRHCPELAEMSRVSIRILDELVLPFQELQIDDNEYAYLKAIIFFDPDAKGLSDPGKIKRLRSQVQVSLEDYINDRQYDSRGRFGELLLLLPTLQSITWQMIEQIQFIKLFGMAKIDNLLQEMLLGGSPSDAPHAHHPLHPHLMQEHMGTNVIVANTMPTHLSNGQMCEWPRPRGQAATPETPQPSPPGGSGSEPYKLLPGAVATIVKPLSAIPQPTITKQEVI
* marks the source's active call; other numbers are inactive results; ? = inconclusive; . = no result given; & = joins results of further samples.

SMILES | E coli growth | A1 inh | Vif A3G | Beta2AR agonist | UCH37 DUB inh | LANA-H2B inh | HNF4A DNA FP
Cc1ccc(CN2CCN(Cc3nc4ccccc4nc3C)CC2CCO)cc1 (stereo not given) | 0.671 | 0.2 | ? | -0.3 | 0.3 | -0.5 | 0.4
Nc1c(Cl)cc(C2=NCCn3nc4cc(C(F)(F)F)ccc4c32)cc1Cl | 0.64 | -0.5 | . | -8.6 | 1.5 | 0.4 | 6.3
O=C(NCc1ccc2c(c1)OCO2)C(=S)N1CCOCC1 | 0.71 | 0.4 | -9.2% | -3.2 | 3.7 | 4.8 | 12.5
CCCc1[nH]nc2c1C(c1ccc(O)cc1OCC)C(C#N)=C(N)O2 (stereo not given) | 0.721 | -0.5 | ? | 2.5 | 1.7 | 3.6 | 0.0
Brc1cc(Cc2nnc(-c3ccccc3)o2)c(Br)s1 | 0.641 | -0.4 | 13.1% | -5.6 | 3.1 | 1.6 | 2.2
O=[N+]([O-])/C(Cl)=C(/NCCO)C(Cl)=C(Cl)Cl | . | . | 7.0% | -6.3 | . | . | -2.8
O=c1c(-c2ccccc2)coc2cc(O)ccc12 | 0.683 | -1.2 | . | -1.6 | -67.0 | 2.6 | 4.4
Cc1cc(CC(C)C)n(-c2nc3ccccc3c(=O)n2OCc2ccccc2)n1 | 0.683 | . | 5.7% | -0.3 | 2.6 | 2.2 | 3.1
C#CCOCCOCCOCCNc1nc(N2CCN(C(=O)[C@H]([C@@H](C)CC)n3cc([C@@H](N)Cc4ccc(O)cc4)nn3)CC2)nc(N2CCN(C(=O)[C@H](Cc3ccc(O)cc3)n3cc([C@@H](N)C(C)CC)nn3)CC2)n1 (stereo not given in full) | 0.776 | 0.0 | 0.5% | 0.4 | -7.7 | 1.7 | 4.2
Cc1n[nH]c(C)c1S(=O)(=O)Nc1ccc2c(c1)OCCO2 | 0.708 | -0.8 | ? | -0.2 | -0.2 | -2.0 | -0.1
[NH-]c1ncnc2c1N=C[N+]2=CC=CCO | 0.672 | 0.4 | -7.1% | -3.2 | -10.6 | 1.9 | -0.1
CN(C(=O)COC(=O)c1ccc2[nH]c3c(c2c1)CCCC3)C1CCS(=O)(=O)C1 (stereo not given) | 0.683 | -0.4 | . | -13.6 | -3.9 | -1.1 | 4.3
O=c1cc(N2CCCCC2)c(-c2ccccc2)nn1Cc1cccc(Cl)c1 | 0.678 | 0.1 | -4.3% | 10.8 | 2.3 | 0.4 | -3.5
Cc1ccc(C)c(NC(=S)NC(C)C(c2ccccc2)N2CCN(C)CC2)c1 (stereo not given) | 0.669 | -0.5 | -12.5% | 5.5 | 0.7 | 1.7 | -0.4
O=[N+]([O-])c1ccc(NC(=S)NCc2ccncc2)cc1 | 0.646 | 0.0 | -3.0% | -4.3 | 4.6 | -3.1 | 4.7
CCOC(=O)c1sc(NC(=O)CCCCCN2C(=O)c3cccc4cccc(c34)C2=O)nc1C | 0.729 | . | 1.4% | 3.2 | -7.6 | . | -1.1
COc1ccc(C(C)NC(=O)Cc2ccc(Br)cc2)cc1 (stereo not given) | 0.688 | 0.6 | 3.1% | -8.1 | 0.3 | -3.0 | -2.5
COc1ccc(NC(=O)CSc2ncnc3c2nnn3-c2ccc(F)cc2)c(OC)c1 | 0.675 | -1.3 | . | 5.2 | 0.8 | -0.2 | -0.4
O=C1NC[C@H](c2ccccc2)N(CCC23CC4CC(CC(C4)C2)C3)C1=O | . | 1.0 | . | -7.3 | 1.0 | 7.2 | 5.1
O=C(CNc1ccccc1)N/N=C/c1ccc([N+](=O)[O-])cc1 | . | -0.1 | 3.2% | -3.5 | . | -4.6 | -1.9
COc1cccc2c(=O)n(CC(=O)Nc3ccc(F)cc3F)ccc12 | 0.741 | . | 2.0% | -13.1 | -6.1 | . | -1.0
CCCc1cc(=O)[nH]c(SCC(=O)Nc2ccc3ccccc3c2)n1 | 0.728 | -0.1 | . | 14.4 | -3.3 | -5.1 | -3.0
CN(Cc1ccccc1)S(=O)(=O)c1ccc(N2CCOCC2)nc1 | 0.659 | -0.4 | -8.3% | -6.6 | 1.3 | -4.5 | 3.5
CC(Nc1ccc(Br)cn1)c1cc(Cl)ccc1O (stereo not given) | . | . | 17.7% | 14.1 | . | . | 29.7
COc1ccc(S(=O)(=O)N2CCN(C(=O)c3ccco3)CC2)cc1OC | 0.645 | -0.7 | 5.4% | -11.6 | -0.2 | -4.8 | -5.6
COc1cc2c(c(OCC(=O)NC(C)C)c1)C(=O)O[C@@H](C)CCCC(=O)CCCCC2 | 0.654 | 1.4 | 1.4% | 2.4 | 0.7 | 2.0 | -7.8
O=C(Cn1nnc(-c2ccc(Cl)cc2)n1)NC1CCS(=O)(=O)C1 (stereo not given) | 0.7 | -1.3 | -9.3% | -6.3 | 1.8 | -7.4 | -1.6
Cc1ccccc1C(=O)NC1CC2CCCC(C1)N2C(=O)Nc1ccccc1 (stereo not given) | 0.697 | 0.0 | 1.1% | -7.1 | 0.6 | 1.2 | 3.3
Cc1sc2nc(C)n(/N=C/c3ccccc3O)c(=O)c2c1C | . | -0.6 | 52.4% | 0.6 | . | 2.2 | -3.1
CC(NC(=O)Cc1ccccc1)c1ccc(F)cc1 (stereo not given) | 0.664 | 0.2 | . | 3.7 | 3.9 | 2.9 | 2.3
COc1ccc(CC(=O)OCC(=O)NNC(=O)c2ccccc2)cc1 | 0.702 | -1.0 | . | 0.8 | 2.2 | 2.2 | -0.8
CCc1nnc(NC(=O)C2(C)COC(c3ccc(OC)cc3)OC2)s1 (stereo not given) | 0.67 | -0.2 | 6.6% | 1.7 | 0.8 | 6.5 | -2.7
O=C(NC1CCCC1)C1CCCN1C(=O)Oc1ccccc1 (stereo not given) | 0.694 | 0.1 | -6.0% | -2.2 | 2.4 | 1.4 | -2.1
O=C(NCC(c1ccco1)N1CCCC1)c1cccc(S(=O)(=O)Nc2ccc(F)cc2)c1 (stereo not given) | 0.671 | 2.0 | 2.5% | -0.9 | -0.8 | -1.4 | 5.7
CN(C)n1cccc1/C=C(\C#N)S(=O)(=O)c1ccc(Cl)cc1 | 0.707 | 0.7 | . | -7.6 | 5.6 | 0.1 | 1.4
Cc1cc(=O)n2cn[nH]c2n1 | 0.673 | . | -4.0% | 0.5 | -0.4 | . | 0.9
Cc1ccc(N2C(=O)CC(Cc3cc(C)cc(C)c3)C2=O)cc1 (stereo not given) | 0.688 | 0.5 | -2.8% | -4.2 | 4.3 | 2.3 | -5.7
COc1ccc(C=NNC(=O)c2ccccc2NS(=O)(=O)c2cccs2)cc1O | 0.702 | 1.2 | . | 14.4 | 2.4 | 5.1 | 0.1
COc1cc2ccccc2cc1C(=O)Nc1sc2c(c1C(N)=O)CCN(C(C)C)C2 | . | 1.3 | . | 10.3 | . | -1.5 | 38.0
O=C1CCC(=O)N1CC(=O)N1c2ccccc2Sc2ccccc21 | 0.699 | 0.2 | -3.6% | -6.3 | 1.2 | -2.5 | 4.4
COc1cccc(C(=O)Nc2ccc3c(c2)C(=O)N(CC2CCCO2)C3=O)c1 (stereo not given) | 0.727 | 2.1 | -21.3% | 4.1 | -24.2 | -2.4 | 0.8
CCCC(C(=O)NCc1ccco1)N(Cc1ccco1)C(=O)CNS(=O)(=O)c1ccccc1 (stereo not given) | 0.703 | -0.7 | . | 2.4 | 2.7 | 0.2 | -0.4
COc1ccc(C(=O)C2CCCN(C(=O)c3c4c(nn3C)CCCC4)C2)cc1F (stereo not given) | 0.7 | 0.8 | -3.5% | -5.3 | 0.4 | 1.5 | 1.3
CCCn1nnnc1NCc1ccc(SC)cc1 | 0.677 | -0.7 | . | 0.8 | -1.6 | 8.7 | -6.3
Cc1ccc(CCNC(=O)CCS(=O)(=O)Cc2ccc(C)cc2)cc1 | 0.676 | 0.1 | -11.8% | -5.8 | 3.3 | 11.2 | 1.0
Cc1cccc(N2CCN(C(=O)CCNS(=O)(=O)c3ccc4c(c3)oc(=O)n4C)CC2)c1C | 0.648 | 0.5 | . | 0.5 | 0.8 | 2.2 | -1.9
CCc1ccc[n+](-c2nc3ccccc3nc2C(=C=[N-])C#N)c1 | 0.701 | -0.1 | 24.7% | -2.4 | 2.6 | 0.8 | 91.6
COc1cc(C(=O)OCc2cc(=O)oc3c(C)c(C)ccc23)ccc1OC(F)F | 0.66 | -0.7 | . | -3.4 | -8.5 | -3.2 | 3.8
CCOC(=O)C1(Cc2ccc(Cl)cc2)CCN(C2CCC2)CC1 | 0.65 | 1.2 | . | 4.5 | -0.7 | -6.5 | -3.1
Cc1sc2ncn(CC(=O)N(CC(=O)NC3CCCC3)Cc3cccs3)c(=O)c2c1C | 0.672 | 0.4 | 1.9%&-2.6% | 0.6 | 2.4 | -3.3 | 3.0

Other entries follow.
SMILES | E coli growth | A1 inh | Vif A3G | Beta2AR agonist | UCH37 DUB inh | LANA-H2B inh | HNF4A DNA FP
O=C(O)c1ccccc1C(=O)Nc1nc(-c2ccccc2)cs1 | 0.667 | 0.3 | . | 1.0 | 4.0 | 8.6 | -3.5
Cc1c(N(C)C(=O)C23CC4CC(CC(C4)C2)C3)c(=O)n(-c2ccccc2)n1C | 0.787 | -1.3 | -0.3% | -1.8 | 3.3 | -1.8 | 0.6
O=C(Nc1cccc(Cl)c1)Nc1ccccc1-n1ccnc1 | 0.65 | 0.5 | 1.7% | -4.4 | -1.7 | -4.4 | 1.6
CCCN1CCC(NC(=O)Cc2ccccc2OC)CC1 | 0.689 | 0.2 | . | 4.8 | 0.2 | 3.4 | 3.2
Cc1ccc(S(=O)(=O)CCC(=O)Nc2cc(Cl)ccc2-n2cncn2)cc1 | 0.641 | -0.1 | -3.7% | -4.5 | 1.4 | 0.3 | 0.9
C#CCOc1c(Cl)cc(/C=C2/C(=O)ON=C2C)cc1OCC | 0.659 | -0.7 | 1.8% | 5.7 | 1.2 | -0.6 | 4.7
Cc1ccc(Cl)cc1N1CCN(C2CCCCC2NS(=O)(=O)c2ccccc2)CC1 (stereo not given) | 0.736 | -0.5 | -4.5% | -3.5 | 2.8 | 2.8 | 0.0
C=CCn1c(=O)c(CCC(=O)Nc2ccc(N3CCOCC3)cc2)nc2cc(C(F)(F)F)ccc21 | 0.642 | 0.3 | . | 10.1 | 2.1 | 2.7 | -2.3
Cc1ccc(OCCC(=O)Nc2c(C)n(C)n(-c3ccccc3)c2=O)cc1 | 0.72 | 0.2 | -0.5% | -6.5 | -2.2 | -1.0 | -2.2
CC1Cc2nc(SCC(=O)N3CCOCC3)n(C)c(=O)c2S1 (stereo not given) | 0.724 | 0.4 | . | -14.7 | 3.4 | -2.3 | -0.8
O=[N+]([O-])c1cc(-c2csc(NCCc3nc4cc(Cl)c(Cl)cc4n3CCCO)n2)ccc1Cl | 0.668 | 1.0 | . | 6.8 | 1.0 | 0.3 | 7.5
Cc1csc2ncc(C(=O)Nc3ccccc3F)c(=O)n12 | 0.728 | -1.3 | . | -14.6 | -24.7 | 3.5 | -1.1
COc1cccc(C(=O)NCC(c2cccs2)N2CCOCC2)c1 (stereo not given) | 0.674 | -1.4 | -6.6% | 7.9 | 0.5 | 5.5 | -2.1
COc1ccc(S(=O)(=O)NCC2CCCN(Cc3ccccc3Cl)C2)cc1 (stereo not given) | 0.667 | -0.3 | . | -2.2 | 0.4 | -4.2 | 4.2
CC12C(=O)N(Cc3ccccc3)C(=O)C1C1C=CC2C1 (stereo not given) | 0.718 | 0.5 | 30.8% | 5.6 | 4.8 | -1.0 | 1.0
